Source: PubChem BioAssay (National Center for Advancing Translational Sciences (NCATS))
VACV mCherry inh = qHTS for Stage-Specific Inhibitors of Vaccinia Orthopoxvirus: mCherry Reporter Primary qHTS | Vaccinia virus mCherry reporter infection, fluorescence; about a quarter of the inactives have no number | Potency, µM (doses to about 36.5 µM), for inactives: at the top dose activity change, negative = inhibition, most hits filed as inhibitors | actives 0.63% (n = 310,000) | AID 720579, 2013; active = well fitted inhibition curve with a large enough effect; inconclusive = small, poorly fitted or top-dose-only effect; inactive = no such curve, though single readings can be large or run the other way; tested in A549 cells; note: nearly all actives have a fitted effect of over 35% in size; inactives centre near -10
Vaccinia Venus = qHTS for Stage-Specific Inhibitors of Vaccinia Orthopoxvirus: Venus Reporter Primary qHTS. Vaccinia virus Venus reporter expression, fluorescence. Potency, µM (series often up to 36.5 µM), without a hit: top-dose activity change, negative = inhibition, actives largely listed as inhibitors. actives 0.46% (n = 330,000); active means well fitted inhibition curve with a large enough effect; inconclusive means small, poorly fitted or top-dose-only effect; inactive means no such curve, though single readings can be large or run the other way; tested in A549 cells; note: nearly all actives have a fitted effect of over 30% in size; inactives centre near -10
An asterisk follows results filed as active; & = joins results of further samples; [ ] = remark or other dose. % is set by controls: 0 for no effect and ±100 for the full control effect; potency is the fitted concentration of half-maximal effect.

For COc1ccc(CN2CC(COCc3ccccc3)Oc3ccccc3S2(=O)=O)cc1 (stereo not drawn) the results were VACV mCherry inh -29% and Vaccinia Venus -4%.
Screening O=C(CSc1cn(CC(=O)N2CCOCC2)c2ccccc12)Nc1ccccc1 returned VACV mCherry inh 5% and Vaccinia Venus -1%.
Cc1cc(C(=O)N/N=C/c2ccc(C)o2)c2ccccc2n1 was read as VACV mCherry inh inconclusive and Vaccinia Venus -24%.
`NC(=O)C1CCN(C(=O)C23CC4CC(CC(C4)C2)C3)CC1` gave VACV mCherry inh -22% and Vaccinia Venus -15%.
Screening O=C(NCc1ccncc1)C(=O)NCC1OCCN1S(=O)(=O)c1ccc(Br)cc1 (stereo not drawn) returned VACV mCherry inh -3% and Vaccinia Venus -22%.
Screening CCOC(=O)[C@@H]1[C@H]2COc3cc(OC)ccc3[C@@H]2N2C(=O)N(c3ccc(OC)cc3)C(=O)[C@]12C returned VACV mCherry inh -1% and Vaccinia Venus -22%.
`N=c1c(C(=O)NC2CCCCC2)cc2c(=O)n3ccccc3nc2n1Cc1cccnc1` gave VACV mCherry inh inactive and Vaccinia Venus -10%.
Screening O=C(CCc1c[nH]c2ccccc12)OCC(=O)c1ccccc1 returned VACV mCherry inh inconclusive and Vaccinia Venus -18%.
Screening CC(=O)c1cccc(N(C(=O)c2ccco2)C(C(=O)NC2CCCC2)c2cccs2)c1 (stereo not drawn) returned VACV mCherry inh -8% and Vaccinia Venus 18%.
Cc1cc(=O)n(Cc2ccc(Br)cc2F)c2c1c(C)nn2-c1ccccc1 was read as VACV mCherry inh -7% and Vaccinia Venus 3%.
For O=C(CSCc1cc(=O)[nH][nH]1)Nc1ccc(F)cc1 the results were VACV mCherry inh 3% and Vaccinia Venus -2%.
Cc1ccc(Cn2c(C(C)Nc3nc(-c4ccc(Cl)c([N+](=O)[O-])c4)cs3)nc3cc(C(F)(F)F)ccc32)cc1 (stereo not drawn) was read as VACV mCherry inh inconclusive and Vaccinia Venus 2%.
`COc1ccc(C(=O)NCC(=O)n2nc(C)cc2C)cc1OC` gave VACV mCherry inh 6% and Vaccinia Venus 2%.
For CCCc1ncc(C(=O)c2ccc(OC)cc2)n1C the results were VACV mCherry inh -3% and Vaccinia Venus -16%.
For COc1ccc(C2C=C(c3ccccc3)Nc3nc(NC(=O)/C=C/c4ccccc4OC)nn32)cc1 (stereo not drawn) the results were VACV mCherry inh -6% and Vaccinia Venus -5%.
Screening COCCNC(=O)Cn1cc(/C=N/NC(=O)c2ccc(Oc3ccc(O)cc3)cc2)c2ccccc21 returned VACV mCherry inh -8% and Vaccinia Venus -9%.
C[C@H](CO)N1C[C@H](C)[C@@H](CN(C)Cc2ccncc2)Oc2c(NC(=O)CCCCCC(=O)Nc3ccccc3N)cccc2C1=O was read as VACV mCherry inh inactive and Vaccinia Venus -9%.
Screening CC1CCN(C(=O)CN(c2cccc(F)c2)S(C)(=O)=O)CC1 returned VACV mCherry inh -5% and Vaccinia Venus 12%.
Screening COC(C(=O)Nc1ccc(S(=O)(=O)Nc2ccc(C)c(C)c2)cc1)c1ccccc1 (stereo not drawn) returned VACV mCherry inh inactive and Vaccinia Venus -16%.
For O=C(NC(=S)NC1CCSC1=O)c1cccs1 (stereo not drawn) the results were VACV mCherry inh -10% and Vaccinia Venus -7%.
`C=CCn1c(CC(=O)Nc2ccc(C)cc2C)nnc1SCC(=O)N1CCOCC1` gave VACV mCherry inh -29% and Vaccinia Venus -16%.
Screening CCOC(=O)CSc1nnc(-c2ccc(OC)cc2OC)o1 returned VACV mCherry inh inactive and Vaccinia Venus -18%.
`CC(C)n1c(SCC(=O)Nc2ccc3c(c2)OCO3)nc2c1c(=O)n(C)c(=O)n2C` gave VACV mCherry inh inactive and Vaccinia Venus -7%.
CCc1cc2c(cc(C(=O)O)n2C)s1 was read as Vaccinia Venus -2%.
`CSc1ncnc2c1ncn2CCCNCc1cccc2ccccc12` gave VACV mCherry inh -11% and Vaccinia Venus -18%.
Cc1nc(C#N)c(N/N=C/c2c(F)cccc2Cl)o1 was read as VACV mCherry inh 7% and Vaccinia Venus -3%.
`CCN(CC)CCCNC(=O)CSc1nc(-c2cccs2)cc(C(F)(F)F)n1` gave VACV mCherry inh 5% and Vaccinia Venus -1%.
`CCc1nnc(NC(=O)CSc2nc3c([nH]c4ccccc43)c(=O)n2-c2ccc(Cl)cc2)s1` gave VACV mCherry inh -15% and Vaccinia Venus -17%.
`CCn1c(SCC(=O)Nc2ccc3c(c2)OCCO3)nnc1-c1cccnc1` gave VACV mCherry inh -9% and Vaccinia Venus -12%.
`O=C(NCC[C@H]1CC[C@H](NS(=O)(=O)c2ccc(F)cc2)[C@@H](CO)O1)c1ccc2c(c1)OCO2` gave VACV mCherry inh 13% and Vaccinia Venus -11%.
`CCOC(=O)CN(C(=O)COC(=O)C1=NNC(=O)CC1)c1ccc(F)cc1` gave VACV mCherry inh -15% and Vaccinia Venus 5%.
`CSc1ccccc1OCc1cc(C(=O)N(C)Cc2ccncn2)no1` gave VACV mCherry inh inactive and Vaccinia Venus -7%.
For CC1CCCCC1NC(=O)CSc1nnc(-c2ccco2)n1C (stereo not drawn) the results were VACV mCherry inh -21% and Vaccinia Venus -13%.
For O=c1cc(CS(=O)(=O)c2ccccc2)nc(-c2ccncc2)[nH]1 the results were VACV mCherry inh -3% and Vaccinia Venus 1%.
O=C(NCc1cccc(Cl)c1)C1Cc2c(-c3ccccc3)ccnc2O1 (stereo not drawn) was read as VACV mCherry inh -1% and Vaccinia Venus -4%.
CCn1c2ccc(F)cc2c2nnc(NN)nc21 was read as VACV mCherry inh -11% and Vaccinia Venus -23%.
CCOc1cc(N2CCOCC2)c(OCC)cc1NC(=O)CN1C(=O)NC2(CCCCC2C)C1=O (stereo not drawn) was read as VACV mCherry inh inactive and Vaccinia Venus -15%.
O=C(Nc1ccc2nc(SCCOc3ccccc3Cl)sc2c1)c1cccs1 was read as VACV mCherry inh -8%[7.34 µM] and Vaccinia Venus -5%[7.34 µM].
COc1ccc(C(=O)CSc2nnc(-c3ccco3)n2CC2CCCO2)cc1 (stereo not drawn) was read as VACV mCherry inh -13% and Vaccinia Venus -11%.
COc1ccccc1CCNC(=O)C1CCC(=O)N(Cc2ccccc2OC)C1 (stereo not drawn) was read as VACV mCherry inh -15% and Vaccinia Venus -6%.

Grouped by structure, the entries above with bromine
Screening O=C(NCc1ccncc1)C(=O)NCC1OCCN1S(=O)(=O)c1ccc(Br)cc1 (stereo not drawn) returned VACV mCherry inh -3% and Vaccinia Venus -22%.
Cc1cc(=O)n(Cc2ccc(Br)cc2F)c2c1c(C)nn2-c1ccccc1 was read as VACV mCherry inh -7% and Vaccinia Venus 3%.

Following part:
O=C1C=C(O)c2c(O)cc(O)c(O)c2C1=O was read as VACV mCherry inh -12% and Vaccinia Venus -5%.
For CC(C)c1cccc(C(C)C)c1NC(=O)COC(=O)C1CCC1 the results were VACV mCherry inh -15% and Vaccinia Venus -1%.
O=C(O)CN(CCN(CC(=O)O)CC(=O)O)CC(=O)O was read as VACV mCherry inh -15% and Vaccinia Venus -10%.
COc1ccccc1CNC(=O)c1cccc(C)c1[N+](=O)[O-] was read as VACV mCherry inh -9% and Vaccinia Venus -5%.
CNC(=O)CSc1nnnn1CCCOC was read as VACV mCherry inh -14% and Vaccinia Venus -6%.
COC(=O)/C=C1/S/C(=N/N=C/c2ccco2)NC1=O was read as VACV mCherry inh -8% and Vaccinia Venus -5%.
`CCOC(=O)c1nc(C)sc1-c1ccnn1S(=O)(=O)c1cccc(Cl)c1` gave VACV mCherry inh -5% and Vaccinia Venus -11%.
For Cc1n[nH]c(C)c1N1C(=O)c2cccc3cc(Br)cc(c23)C1=O the results were Vaccinia Venus -18%.
Screening COc1ccc(-c2nc(Cn3c(SCc4ccc(F)cc4)nc4cccnc43)c(C)o2)cc1 returned VACV mCherry inh -28% and Vaccinia Venus inconclusive.
`COCC(C)NC(=O)Cn1c(SCc2ccccc2)nc2ccccc21` (stereo not drawn) gave VACV mCherry inh 1% and Vaccinia Venus -10%&-17%.
Screening O=C(Nc1ccc(C(=O)N2CCN(c3ccccc3)CC2)cc1)C1=CSCCO1 returned VACV mCherry inh -7% and Vaccinia Venus -8%.
Screening CN1C(=O)CSc2ccc(C(=O)O)cc21 returned VACV mCherry inh -5% and Vaccinia Venus -3%.
O=C1c2ccccc2-n2nnc(-c3ccccc3)c2C2c3cc(Br)ccc3CCN12 (stereo not drawn) was read as VACV mCherry inh 20% and Vaccinia Venus 4%.
For OC(c1ccccn1)(c1ccccn1)c1ccccn1 the results were VACV mCherry inh inconclusive and Vaccinia Venus inconclusive.
For CN1CCN(C(c2ccc(C(F)(F)F)cc2)c2ccc3cccnc3c2O)CC1 (stereo not drawn) the results were VACV mCherry inh inconclusive and Vaccinia Venus -18%.
For COc1ccc(OC)c(-n2c(SCC(=O)N3CCc4ccccc43)nc3c(c2=O)SCC3)c1 the results were VACV mCherry inh inconclusive and Vaccinia Venus 6%.
Cn1c(CC(=O)Nc2ccccc2)nnc1SCC(=O)NC1CCCC1 was read as VACV mCherry inh -8% and Vaccinia Venus 6%.
Screening CN(Cc1ccccc1)C(=O)COC(=O)c1ccc2c(c1)OCO2 returned VACV mCherry inh -11% and Vaccinia Venus -9%.
`C#CCN(C[C@@H]1[C@@H](OC(=O)Nc2c(C)noc2C)[C@@H](OC(=O)Nc2c(C)noc2C)Cn2c(=O)n(CCCCCC)c(=O)n21)S(=O)(=O)c1ccc(C)cc1` gave VACV mCherry inh inconclusive and Vaccinia Venus inconclusive.
COc1ccc(C(=O)NC(=S)NC(C)C)cc1Br was read as VACV mCherry inh inactive and Vaccinia Venus -5%.

Sorted by SMILES length (falling): some entries from above.
For COc1ccc(OC)c(-n2c(SCC(=O)N3CCc4ccccc43)nc3c(c2=O)SCC3)c1 the results were VACV mCherry inh inconclusive and Vaccinia Venus 6%.
Screening O=C(Nc1ccc(C(=O)N2CCN(c3ccccc3)CC2)cc1)C1=CSCCO1 returned VACV mCherry inh -7% and Vaccinia Venus -8%.
Screening CN(Cc1ccccc1)C(=O)COC(=O)c1ccc2c(c1)OCO2 returned VACV mCherry inh -11% and Vaccinia Venus -9%.
Screening CN1C(=O)CSc2ccc(C(=O)O)cc21 returned VACV mCherry inh -5% and Vaccinia Venus -3%.

Returning to the listing with the 2 entries that preceded the break.
`C#CCN(C[C@@H]1[C@@H](OC(=O)Nc2c(C)noc2C)[C@@H](OC(=O)Nc2c(C)noc2C)Cn2c(=O)n(CCCCCC)c(=O)n21)S(=O)(=O)c1ccc(C)cc1` gave VACV mCherry inh inconclusive and Vaccinia Venus inconclusive.
COc1ccc(C(=O)NC(=S)NC(C)C)cc1Br was read as VACV mCherry inh inactive and Vaccinia Venus -5%.
`COC(=O)/C=C/c1c(C)nc(NCc2ccccc2)nc1Cl` gave VACV mCherry inh -14% and Vaccinia Venus -16%.
For Nc1nc(N)c(N)c(=O)[nH]1 the results were VACV mCherry inh inactive and Vaccinia Venus -13%.
For COc1ccc(/C=C/C(=O)OCC(=O)c2ccc3c(c2)NC(=O)CO3)c(OC)c1 the results were VACV mCherry inh -13% and Vaccinia Venus 0%.
For O=C(COc1ncnc2cc([N+](=O)[O-])ccc12)NCCc1ccc(Cl)cc1 the results were VACV mCherry inh -1% and Vaccinia Venus -2%.
COc1cccc(SCc2noc(C(=O)NC(C)C)c2C(=O)NC(C)C)c1 was read as VACV mCherry inh -2% and Vaccinia Venus -25%.
CCOc1ccc(C(CC(=O)O)N2Cc3ccccc3C2=O)cc1OC (stereo not drawn) was read as VACV mCherry inh 1% and Vaccinia Venus -3%.
Screening COc1ccc(CC(=O)Nc2ccc(S(=O)(=O)NCC3CCCO3)cc2)cc1 (stereo not drawn) returned VACV mCherry inh inactive and Vaccinia Venus -16%.
For COc1ccc(Oc2nc(-c3cccnc3)nc3ccccc23)cc1 the results were VACV mCherry inh -20%[7.34 µM] and Vaccinia Venus -14%[7.34 µM].
For O=C(Nc1ccc(-n2nncc2-c2ccco2)cc1)c1cc2ccccc2oc1=O the results were VACV mCherry inh -5% and Vaccinia Venus -1%.
For CCOC(=O)c1c(C)[nH]c(C(=O)COC(=O)CCSc2ccccc2)c1C the results were VACV mCherry inh -9% and Vaccinia Venus -10%.
COC(=O)N(C)c1nc2ccccc2s1 was read as Vaccinia Venus -4%.
Screening O=C(Nc1cccnc1)C1CCN(S(=O)(=O)c2ccc(Cl)cc2)CC1 returned VACV mCherry inh -6% and Vaccinia Venus -11%.
For Cc1ccc(C)c(N2CCN(C(=O)c3cc4ccccc4oc3=O)CC2)c1 the results were VACV mCherry inh -15% and Vaccinia Venus -21%.
`CC(=O)NCc1ccc(S(=O)(=O)NC(C)CCc2ccccc2)cc1` (stereo not drawn) gave VACV mCherry inh inactive and Vaccinia Venus 4%.
`Cc1ccc2c(c1)-c1ccccc1S(=O)(=O)N2` gave VACV mCherry inh -5% and Vaccinia Venus -15%.
Cc1cccc(-n2nnc3c(=O)n(CC(=O)Nc4cc(C)on4)cnc32)c1 was read as VACV mCherry inh -14% and Vaccinia Venus -11%.
For NC(=O)c1ccccc1OCC(=O)N1CCCC1c1ccc2c(c1)OCCCO2 (stereo not drawn) the results were VACV mCherry inh -14% and Vaccinia Venus -7%.
For O=C(Nc1ccc(S(=O)(=O)N2CCCC2)cc1)c1ccccc1 the results were VACV mCherry inh -12% and Vaccinia Venus 0%.
For COc1ccc(C(=O)NCCCOc2cccc(NC(C)=O)c2)cc1 the results were VACV mCherry inh -15% and Vaccinia Venus 3%.
Cc1cccc(C)c1NC(=O)CN(C)C(=O)CC1Sc2ccccc2NC1=O (stereo not drawn) was read as VACV mCherry inh -10% and Vaccinia Venus -6%.
